Bioassay records: PubChem BioAssay, several laboratories
LANA-H2A inh: blocks KSHV LANA binding to histone H2A/H2B; Q9QR71; cell-free LANA-H2A/H2B peptide, fluorescence polarization; inhibition, % (concentration not given with the values); 320,000 tested, 0.6% active; AID 2629; in the data active means inhibition mostly above about 10%, no sharp cut-off; inactive means mostly below about 6.7%;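 further: stock transfer was 7.5 nL into about 10 µL; 0% = median of vehicle wells and 100% = median of positive control wells; one replicate is shown; the record names a cut of 25% in any replicate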
T cruzi repl: T. cruzi replication inhibition. T. cruzi beta-gal in NIH3T3, luminescence, 90 h. inhibition, % (test concentration not listed). 300,000 tested, 1.4% active;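 active means mean inhibition across valid replicates above about 55%, limit read from the data; inconclusive means mean below that limit but half or more replicates reach it; inactive means mean below it, under half of replicates reach it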;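 further: signal also drops with host cell toxicity which is not excluded here; 0% = plate median of DMSO wells and 100% = zero luminescence signal; higher percent means less beta-gal luminescence so fewer parasites; stock transfer was 50 nL into about 50 µL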
Beta cell apopt: blocks beta cell apoptosis; 300,000 tested, 0.8% active; INS-1E cytokine-induced death, ATP luminescence, 48 h; percent of positive-control rescue, neutral wells zero; protection from apoptosis, % (no concentration beside the values); AID 435005;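 active means all replicates at 75% or more, or half of them and the mean; inconclusive means half reach 75% but not the mean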;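 further: 0% = cytokine-treated negative control wells and 100% = positive control rescue; higher means more ATP so stronger rescue from cytokine killing; wells of about 40 µL received 100 nL stock; the first replicate is given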
Calb FLC: affects C. albicans growth with fluconazole. C. albicans CaCi-2 (fluconazole-resistant clinical isolate) + fluconazole, Alamar Blue growth, 48 h. growth inhibition, % (concentration not given with the values). 300,000 tested, 0.57% active. AID 1979;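 active means most replicates above 75%; inconclusive means exactly half above 75%; inactive means most below 75%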;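 further: all wells also contain fluconazole at 8 µg/ml as a sub-toxic cotreatment; 0% = median of DMSO wells and 100% = median of geldanamycin control wells; wells of about 8 µL received 7.5 nL stock; the first replicate is given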
Vif A3G: inhibitors of Vif binding to APOBEC3G peptide, primary screen, biochemical, TR-FRET, GST-Vif 1-94, biotin-A3G peptide, dose response retest (AID 1117319). TR-FRET GST-Vif / biotin-A3G peptide binding; higher % means a stronger effect; test concentration not given here; strong numbers were not always called active. inhibition, %, or IC50 in µM where a hit was titrated. 260,000 tested, 0.57% active;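 active means above the screen mean plus three standard deviations and confirmed in dose response; inconclusive means results disagree or hit not tested in dose response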;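 further: Vif residues 1-94 fused to GST binding biotinylated APOBEC3G peptide 110-148; 0% = full assay without inhibitor and 100% = GST in place of GST-Vif; retest series ran down from 100 µM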
AF4-AF9 inh: inhibitors of human MLL-AF4/AF9 interaction; P42568; AlphaScreen, biotin-AF4 peptide binding to FLAG-AF9; inhibition, % at 10 µM; 350,000 tested, 0.47% active; AID 651704;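 active means every replicate reaching a set inhibition limit, whatever the replicate mean, cut at about 25% in these data; inconclusive means mean inhibition reaches that limit but some replicates miss it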;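 further: 0% = plate neutral control median and 100% = total signal loss; the record names both 10 and 1 µM as test concentration; the first replicate is given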
Target sequence (P42568 whole entry, looked up): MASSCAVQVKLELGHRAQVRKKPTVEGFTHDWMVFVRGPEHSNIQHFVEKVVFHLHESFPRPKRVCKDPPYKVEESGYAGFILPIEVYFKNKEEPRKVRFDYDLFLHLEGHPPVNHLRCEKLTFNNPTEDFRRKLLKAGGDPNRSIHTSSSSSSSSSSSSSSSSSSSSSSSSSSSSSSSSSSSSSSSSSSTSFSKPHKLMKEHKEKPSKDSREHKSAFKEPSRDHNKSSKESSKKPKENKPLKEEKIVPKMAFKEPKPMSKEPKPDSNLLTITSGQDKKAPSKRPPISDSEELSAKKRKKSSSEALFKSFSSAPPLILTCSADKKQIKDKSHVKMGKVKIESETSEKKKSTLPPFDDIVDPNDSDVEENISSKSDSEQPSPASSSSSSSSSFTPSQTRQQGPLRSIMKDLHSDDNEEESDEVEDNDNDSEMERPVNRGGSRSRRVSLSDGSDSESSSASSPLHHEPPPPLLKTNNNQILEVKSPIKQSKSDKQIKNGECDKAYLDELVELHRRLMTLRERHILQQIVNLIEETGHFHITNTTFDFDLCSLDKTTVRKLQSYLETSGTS
RanGTP-Impb inh: disruptors of Ran-importin-beta complex formation – biochemical, FRET, CFP-Ran, YFP-importin-beta, homogeneous, primary screen; cell-free CFP-Ran/YFP-importin-beta FRET ratio; inhibition, % (no concentration beside the values); 300,000 tested, 1.1% active; AID 2216;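 active means most replicates above 15%; inconclusive means exactly half above 15%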;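 further: 0% = DMSO wells and 100% = Ran loaded with GDP instead of GTP; wells of about 40 µL received 100 nL stock; the first replicate is given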
Bfl-1 A1 inh: inhibitors of the anti-apoptotic protein A1, read as caspase activation. MEF A1-2A-BIM cells, Caspase-Glo 3/7 luminescence, 3 h; percent of clofoctol response, vehicle zero. caspase activation, % (no concentration beside the values). 330,000 tested, 0.066% active. AID 2462;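 active means over half of replicate activation scores above 10%, or exactly half above 10 with the replicate mean above 10; inconclusive means replicate mean below 10 yet half the replicates above 10; inactive means over half of replicates below 10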;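 further: wells of about 30 µL received 50 nL stock; many hits fall short of the cut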
* = called active by the depositor; ? = inconclusive; nt = not tested or not shown; & = joins results of further samples.

SMILES | LANA-H2A inh | T cruzi repl | Beta cell apopt | Calb FLC | Vif A3G | AF4-AF9 inh | RanGTP-Impb inh | Bfl-1 A1 inh
COc1cccc(CNC2CN3CCC2CC3)c1OC (centres undefined) | -2.6 | -4 | -4 | 1 | -1% | nt | 2.2 | 0.5
Cc1ccc(OCC(=O)N2CCCC(N3CCN(c4ccc(F)cc4)CC3)C2)cc1 (centres undefined) | -8.4 | 14 | -5 | 0 | nt | 4.6 | 23 | 0.3
CCCC(=O)C1C(=O)NC(=O)NC1=O | 1.5 | -5 | 5 | -5 | 3% | nt | 2.7 | -0.4
Nc1c(C(=O)NC2CCCC2)c2nc3ccccc3nc2n1CC1CCCO1 (centres undefined) | -3.3 | 13 | -12 | 5 | 63% | nt | 97* | -0.4
COc1ccccc1C1C([N+](=O)[O-])=C(N)Oc2c1c(=O)oc1ccccc21 (centres undefined) | 3.8 | 0 | -1 | 1 | 3% | nt | 2.2 | 0.1
CCC(=NC1CCN(Cc2ccccc2)CC1)c1c(O)[nH]c(=O)[nH]c1=O | -0.9 | 24 | 2 | -10 | 2% | nt | 2.5 | -0.2
O=C(Nc1ccc(OC(=O)N2CCCCC2)cc1)N1CCOCC1 | 4.5 | -9 | -10 | -16 | nt | 0.6 | -1.8 | 1.3
Cc1ccc(-c2nc3ccccc3c(=O)n2-c2ncccc2C)cc1 | 3.2 | 1 | -3 | -3 | 4% | nt | ? | 0.7
Cn1c(N)c(C(=O)COC(=O)Cc2ccccc2)c(=O)n(C)c1=O | -2.9 | nt | -5 | nt | -4% | -2.4 | nt | 0.1
O=C(/C=C/c1c[nH]c2ccccc12)c1c(O)n(CCc2ccccc2)c(=O)[nH]c1=O | -1.9 | -16 | -8 | 0 | 26% | 0.7 | 31* | 0.5
CCCCN1C(=O)NC(=O)C2(Cc3ccccc3N3CCOCC32)C1=O (centres undefined) | -1.4 | 2 | -2 | 16 | 68% | nt | -2.3 | 0.3
Cc1cc(C(=O)CS(=O)(=O)c2ccccc2)cc(C)c1OC(=O)N(C)C | -4.7 | -1 | nt | 36 | 0% | -1.0 | ? | -0.1
COc1ccc(NC(=O)CN(C)C(=O)CSC(c2ccccc2)c2ccccc2)cc1 | -1.9 | nt | 8 | nt | -9% | -0.6 | nt | 0.5
O=C(COc1ccc(S(=O)(=O)N2CCOCC2)cc1)N1CCN(Cc2ccc3c(c2)OCO3)CC1 | 14 | 12 | 11 | 0 | -2% | nt | 3.1 | 0.3
CCC(CO)(C(=O)OC1CC2CCC(C1)N2C)c1ccccc1 (centres undefined) | -1.9 | -4 | -8 | -1 | nt | 0.7 | ? | -0.7
O=C1NC(=S)N(c2ccccc2)C(=O)C1C(c1ccncc1)C1C(=O)NC(=S)N(c2ccccc2)C1=O (centres undefined) | -0.1 | 5 | -1 | 7 | 30% | -2.8 | 0.8 | -1.2
N=C1c2ccccc2CN1c1cccc([N+](=O)[O-])c1 | -2.8 | 1 | -2 | 7 | 6% | -0.5 | 3.6 | 0.2
Cc1cc(C(=O)CN2CCCC2)c(C)n1-c1ccc(F)cc1 | -1.0 | -1 | -2 | 6 | 14% | 1.7 | 8.7 | 0.8
CC(C)(C)P(=O)(c1ccncc1)N1CCCC1 (centres undefined) | 0.9 | -1 | 0 | -7 | -5% | 6.0 | -0.2 | 0.0
O=C(c1cc(-c2cccnc2)nc2ccccc12)N1CCC2(CC1)OCCO2 | -4.2 | -12 | -10 | 0 | 4% | nt | -0.3 | 0.6
CCOC(=O)C(O)(c1ccc(N)c(OC)c1)C(F)(F)F (centres undefined) | -1.0 | 1 | 1 | -9 | 1% | nt | -2.4 | 0.5
COc1ccc(-n2c(O)c(C(C)=NCc3ccco3)c(=O)[nH]c2=O)cc1 | 2.2 | 7 | nt | 1 | 9% | nt | 0.2 | -0.3
CN1CCN(c2c(F)cc([N+](=O)[O-])c(N)c2Br)CC1 | -1.8 | 6 | 3 | -21 | 8% | 0.0 | 5.2 | -0.1
CCOc1ccccc1CN1CCCC(C(=O)c2cc(F)ccc2F)C1 (centres undefined) | 1.2 | 1 | -1 | 2 | nt | -1.2 | ? | 0.7
O=C(c1cc(-c2ccncc2)nc2ccccc12)N1CCC2(CC1)OCCO2 | 0.1 | 27 | -3 | -4 | 18% | nt | -0.2 | -0.4
O=[N+]([O-])/C=C1\NCCN1Cc1ccc(Cl)nc1 | 10&1.7 | -5&13 | -11&-2 | 3&14 | 7%&2% | -2.9&1.3 | -0.6&-5.9 | 0.7&-0.1
COc1ccc(N2C(=O)NC(=O)/C(=C\c3ccc([N+](=O)[O-])s3)C2=O)cc1 | -0.5 | 60* | 1 | 0 | nt | -2.9 | -2.7 | 1.3
Cc1ccccc1-n1c(C)nc2sccc2c1=O | 1.3 | -4 | -4 | 8 | -3% | nt | 5.0 | 0.0
CCOc1ccc2nc(N=Nc3c(O)[nH]c(=O)[nH]c3=O)sc2c1 | -2.6 | -8 | 4 | -5 | ? | 1.5 | -23 | -0.1
C=CCN1CC[C@]23c4c5ccc(O)c4OC2C(=O)CC[C@@]3(O)C1C5 (some centres undefined) | -1.9 | 0 | -3 | nt | 4% | -5.1 | 0.4 | 0.4
CCCCCCC[n+]1ccc(-c2cc[n+](CCCCCCC)cc2)cc1 | -3.5 | -37 | 102* | ? | nt | 1.1 | -0.2 | -0.5
CN1C(=O)c2ccccc2NC(=O)C1Cc1ccccc1 (centres undefined) | 0.2 | -4 | nt | -3 | nt | -4.3 | -2.9 | 0.2
CC(=O)N1N=C2C3CCN(CC3)C2C1c1ccc(C)cc1 (centres undefined) | 3.4 | -20 | 2 | -10 | nt | 2.0 | 2.3 | -0.5
COc1cc(CC2(CCc3ccncc3)C(=O)NC(=O)NC2=O)cc(OC)c1OC | -0.8 | -2 | nt | -5 | -6% | -0.7 | 1.3 | 1.7
Cc1cc(Oc2ccc(C(F)(F)F)cc2[N+](=O)[O-])c2c3c(c(=O)oc2c1)CCCC3 | nt | 2 | -9 | -19 | nt | 2.6 | 0.1 | -0.2
COc1ccc(-n2nc(C(=O)NCC(=O)N3CCC4(CC3)OCCO4)c3ccccc3c2=O)c(OC)c1 | 1.1 | -10 | -1 | 2 | nt | -0.5 | -4.6 | -0.2
O=[N+]([O-])c1ccccc1CNCCc1ccc(F)cc1 | -1.0 | 10 | -4 | -15 | -1% | nt | ? | 0.8
O=C(CN1CC(c2ccccc2)CC1=O)NCc1ccc(F)cc1 (centres undefined) | 5.1 | -4 | -7 | 0 | -8% | -1.9 | 6.4 | 0.9
COc1cc(O)cc2c1C(=O)O[C@@H](C)CCCC(=O)CCCCC2 | -4.6 | -4 | 2 | 0 | 4% | -1.4 | 1.5 | 1.6
Nc1ccc2c(c1)oc1ccccc12 | -3.4 | -30 | 1 | -10 | 19% | nt | 4.9 | -0.3

Single records (already shown). Order of values: LANA-H2A inh, T cruzi repl, Beta cell apopt, Calb FLC, Vif A3G, AF4-AF9 inh, RanGTP-Impb inh, Bfl-1 A1 inh
`O=[N+]([O-])/C=C1\NCCN1Cc1ccc(Cl)nc1` across the screens: 10&1.7, -5&13, -11&-2, 3&14, 7%&2%, -2.9&1.3, -0.6&-5.9, 0.7&-0.1
`CCC(=NC1CCN(Cc2ccccc2)CC1)c1c(O)[nH]c(=O)[nH]c1=O` across the screens: -0.9, 24, 2, -10, 2%, nt, 2.5, -0.2

Further structures follow.
SMILES | LANA-H2A inh | T cruzi repl | Beta cell apopt | Calb FLC | Vif A3G | AF4-AF9 inh | RanGTP-Impb inh | Bfl-1 A1 inh
Cc1cc(Br)ccc1N1C(=O)CC(=O)NC1=O | 2.6 | -28 | -1 | -1 | 3% | nt | -2.1 | -0.4
COc1ccc(-c2n(-c3ccccn3)c3ccccc3[n+]2-c2ccccn2)cc1 | nt | 20 | nt | -6 | ? | 1.4 | 4.1 | nt
CCCC[N+]1(C)[C@@H]2CC(OC(=O)[C@H](CO)c3ccccc3)C[C@H]1[C@@H]1O[C@@H]12 (some centres undefined) | 0.2 | -14 | -12 | nt | -5% | -2.4 | -5.6 | 0.0
O=c1[nH]c(O)c(/C=C2\C=NN=C2c2ccccc2)c(=O)[nH]1 | -0.4 | -8 | -4 | -16 | -1% | -9.5 | -7.1 | -0.5
N#Cc1c(/N=C/C2C(=O)NC(=S)NC2=O)sc2c1CCCC2 | 3.0 | 5 | -2 | -3 | 0% | -1.2 | -7.5 | 1.5
COc1cc(CN2CCCC(C(=O)c3sccc3C)C2)cc(Cl)c1O (centres undefined) | -4.0 | 41 | 20 | -19 | 9% | 5.1 | 5.0 | -0.1
CCN(CC)S(=O)(=O)N1CCC(C(=O)N2CCC3(CC2)OCCO3)CC1 | -1.6 | -4 | -2 | -8 | 2% | -1.3 | 1.4 | 0.2
O=C(O)c1ccc(N=Cc2c(O)n(Cc3ccc(F)cc3)c(=O)[nH]c2=O)cc1 | 0.6 | -9 | -8 | -4 | 5% | 1.0 | 1.3 | -0.3
O=c1[nH]c(=O)n(Cc2ccccc2)c(O)c1/C=C1\C=Nc2ccccc21 | 3.4 | 6 | -3 | -4 | -5% | -0.8 | 0.0 | -0.1
c1cncc(C2CCCN2)c1 (centres undefined) | 1.1 | -14 | -3 | -11 | nt | nt | 1.4 | 0.0
CCn1ccnc1CN1CCCC(C(=O)c2cc(C)c(OC)c(C)c2)C1 (centres undefined) | 4.3 | 0 | -2 | -3 | 0% | 1.2 | -0.8 | -0.5
CC(=O)Nc1ccccc1C(=O)OCc1ccc(C(=O)c2ccccc2)cc1 | 2.4 | -21 | 9 | 9 | -9% | nt | 4.9 | -0.4
COc1ccc(OC)c(CN2CCN(C(=O)Cc3ccccc3)CC2)c1 | -0.1 | -8 | nt | 2 | nt | -8.2 | -2.4 | 0.1
S=C1NC2(CCCCC2)NC12CCCCC2 | -5.2 | -19 | -6 | -1 | nt | -1.8 | 3.5 | 1.0
C=CCN1C[C@@H](C)N(C(c2ccc(C(=O)N(CC)CC)cc2)c2cccc(OC)c2)C[C@@H]1C (some centres undefined) | -3.5 | nt | -1 | nt | nt | 2.2 | nt | 0.1
O=c1c2ccccc2nc(-c2ccccc2)n1-c1ccccc1 | 3.2 | -12 | nt | 8 | 3% | 7.3 | -0.9 | 0.8
CCOc1ccccc1OCC(=O)Nc1ccc(Cl)cc1C(=O)c1ccccc1 | 0.4 | 6 | 0 | -1 | nt | 5.3 | 4.3 | 0.1
CCOP(=O)(OCC)C(O)c1ccc(N(C)C)cc1 (centres undefined) | -0.2 | 11 | nt | -2 | 4% | -2.5 | 5.5 | 0.7

Reprinted at random: 2 records from the list.
SMILES | LANA-H2A inh | T cruzi repl | Beta cell apopt | Calb FLC | Vif A3G | AF4-AF9 inh | RanGTP-Impb inh | Bfl-1 A1 inh
S=C1NC2(CCCCC2)NC12CCCCC2 | -5.2 | -19 | -6 | -1 | nt | -1.8 | 3.5 | 1.0
CCN(CC)S(=O)(=O)N1CCC(C(=O)N2CCC3(CC2)OCCO3)CC1 | -1.6 | -4 | -2 | -8 | 2% | -1.3 | 1.4 | 0.2

A portion of the library; count on the stated rates, not on these rows.
